Screening data as filed in PubChem BioAssay.
Vaccinia stage: blocks a specific stage of Vaccinia orthopoxvirus infection, primary screen, cell-based, single point; activity change (mCherry), % (no concentration beside the values); Vaccinia-infected cells, mCherry/Venus stage reporter fluorescence; hits give low values; some inactives read as strong as hits; AID 1053133, 2014; 89,000 compounds, 0.01% hits;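 active = mCherry past -33% and 40 or more points under the early reporter, replicates agreeing; inconclusive = past -33% without that gap or agreement; tested in A549 cells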;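 note: scaled between vehicle wells and reference inhibitor wells; 23 nL library stock went into each well; one replicate is shown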
Vaccinia stage Venus: second read-out of Vaccinia stage, no call of its own (marks repeat the call); activity change (Venus), %; measured here: Venus reporter, other viral stage;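 negative = less Venus signal; first of two replicates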
An asterisk follows results filed as active; ? = inconclusive; / = no result given; & = joins results of further samples. Not all compounds are listed. The share of hits here may be higher or lower than overall.

| compound | Vaccinia stage | Vaccinia stage Venus |
| --- | --- | --- |
| C[C@H](CO)N1C[C@H](C)[C@@H](CN(C)C(=O)c2ccncc2)OCCCC[C@H](C)Oc2ccc(NS(=O)(=O)c3cccs3)cc2C1=O | 6 | 2 |
| CCCC#Cc1ccc2c(c1)O[C@H](CN(C)Cc1ccccc1)[C@@H](C)CN([C@H](C)CO)S2(=O)=O | ? | / |
| COc1ccc(NC(=O)N[C@@H]2CC[C@H](CCNC(=O)c3cc(Cl)cc(Cl)c3)O[C@@H]2CO)cc1 | -12 | -6 |
| COC(=O)C[C@H]1CC[C@H](NC(=O)Nc2ccc(C(F)(F)F)cc2)[C@H](CO)O1 | -3 | 1 |
| CC(C)NC(=O)N(C)C[C@@H]1Oc2cc(C#Cc3cccc(F)c3)ccc2S(=O)(=O)N([C@H](C)CO)C[C@H]1C | -27 | -18 |
| C[C@H]1CN([C@@H](C)CO)C(=O)c2cc(NC(=O)NC3CCCCC3)ccc2O[C@@H]1CN(C)C(=O)Nc1ccc2c(c1)OCO2 | 10 | 5 |
| COC(=O)N(C)C[C@@H]1OCc2cnnn2CCCC(=O)N([C@@H](C)CO)C[C@@H]1C | 6 | 9 |
| Cc1ccc(-c2ccc3c(c2)O[C@@H](CN(C)CC2CCCC2)[C@H](C)CN([C@@H](C)CO)S3(=O)=O)cc1 | ? | / |
| COc1ccccc1-c1ccccc1[C@H]1[C@@H](C#N)N(C(=O)C2CC2)[C@@H]1CO | 7 | 12 |
| Cc1ccc(-c2cnc3c(c2)C(=O)N([C@H](C)CO)C[C@@H](C)[C@H](CN(C)C(=O)c2ccncc2)O3)cc1 | 13 | 0 |
| C[C@H](CO)N1C[C@H](C)[C@@H](CN(C)C)Oc2ccc(NC(=O)C3CCCCC3)cc2C1=O | -3 | 6 |
| C[C@H](CO)N1C[C@H](C)[C@@H](CN(C)S(=O)(=O)c2cccc(F)c2)OCc2ccccc2-c2c(n(C)c3ccccc23)C1=O | ? | / |
| O=C(Cc1ccncc1)NCC[C@H]1CC[C@H](NC(=O)C2CCC2)[C@@H](CO)O1 | 1 | 9 |
| CNC[C@@H]1Oc2ccc(NC(=O)C3CCCCC3)cc2CC(=O)N([C@H](C)CO)C[C@@H]1C | -2 | -4 |
| CO[C@@H]1CN(C)C(=O)c2cc(NC(=O)NC3CCCCC3)ccc2OC[C@H](C)N(CC2CCOCC2)C[C@H]1C | -6 | -15 |
| COc1ccc2c3c(n(C)c2c1)[C@@H](CO)N(Cc1ccncc1)CC31CN(C(=O)Cc2ccncc2)C1 | 8 | 1 |
| COc1ccc(NC(=O)N(C)C[C@@H]2OCCCC[C@H](C)Oc3ccc(N(C)C)cc3C(=O)N([C@H](C)CO)C[C@@H]2C)cc1 | -3 | -1 |
| C[C@H]1CN([C@@H](C)CO)C(=O)Cc2cc(NC(=O)Cc3cn(C)c4ccccc34)ccc2O[C@@H]1CN(C)C(=O)Nc1ccc(F)cc1 | -6 | -7 |
| C[C@@H]1CN([C@H](C)CO)C(=O)c2cccc(NC(=O)Nc3ccc(F)cc3)c2O[C@@H]1CN(C)CC1CCCCC1 | ? | / |
| C[C@H]1CN([C@@H](C)CO)C(=O)c2cc(-c3cccnc3)cnc2O[C@@H]1CN(C)C(=O)C1CCC1 | 3 | 4 |
| N#C[C@@H]1[C@H](c2ccc(C3=CCCCC3)cc2)[C@@H](CO)N1C(=O)NC1CCCCC1 | ? | / |
| C[C@@H](NC(=O)C[C@H]1CC[C@@H](NC(=O)CN2CCOCC2)[C@H](CO)O1)c1ccccc1 | 7 | 12 |
| C[C@@H]1CCCCO[C@H](CN(C)C(=O)NC2CCCCC2)[C@@H](C)CN([C@@H](C)CO)C(=O)c2cc(NS(=O)(=O)c3ccccc3)ccc2O1 | -10 | -7 |
| O=C(CC1CC1)N1CC(=O)N2[C@H](C1)[C@H](c1ccc(C#Cc3ccc(F)cc3)cc1)[C@@H]2CO | ? | / |
| CN1C(=O)c2cc(NC(=O)c3ccc(F)c(F)c3)ccc2OC[C@H]2O[C@H](CC(=O)N3CCOCC3)CC[C@H]21 | -5 | -3 |
| CCCC#Cc1ccc([C@@H]2[C@H]3CN(S(=O)(=O)Cc4ccccc4)CCCCN3[C@H]2CO)cc1 | ? | / |
| COCC#Cc1cnc2c(c1)C(=O)N([C@@H](C)CO)C[C@H](C)[C@H](CN(C)S(C)(=O)=O)O2 | 5 | 4 |
| COc1cccc(C#Cc2ccc([C@@H]3[C@@H](C#N)N(C(=O)C4CCC4)[C@@H]3CO)cc2)c1 | -20 | -10 |
| C[C@@H]1CCCCO[C@H](CN(C)C(=O)Nc2ccc3c(c2)OCO3)[C@H](C)CN([C@H](C)CO)C(=O)c2cc(NC(=O)Nc3ccc(F)cc3)ccc2O1 | 9 | 9 |
| C[C@@H]1CCCCO[C@H](CN(C)C(=O)Nc2ccccc2)[C@H](C)CN([C@@H](C)CO)C(=O)c2cc(NC(=O)Nc3cccc4ccccc34)ccc2O1 | 25 | 24 |
| C[C@@H]1CN([C@@H](C)CO)C(=O)Cc2cc(NC(=O)Nc3ccccc3)ccc2O[C@H]1CN(C)S(=O)(=O)c1ccccc1 | -5 | 2 |
| O=C(C[C@H]1CC[C@@H](NS(=O)(=O)c2ccccc2)[C@H](CO)O1)NCc1ccc(Cl)c(Cl)c1 | -28 | -16 |
| CCC(=O)Nc1ccc2c(c1)OC[C@@H](C)NC[C@H](C)[C@@H](OC)CN(C)C2=O | -7 | -5 |
| C[C@@H]1CN([C@@H](C)CO)C(=O)c2cc(NS(=O)(=O)c3ccccc3)ccc2O[C@@H](C)CCCCO[C@@H]1CN(C)S(=O)(=O)c1cn(C)cn1 | 6 | 0 |
| C[C@H](CO)N1C[C@H](C)[C@@H](CN(C)S(=O)(=O)c2cccs2)Oc2ccc(NC(=O)CCC(F)(F)F)cc2CC1=O | 8 | 8 |
| C[C@H](CO)N1C[C@H](C)[C@@H](CN(C)S(=O)(=O)c2ccc(Cl)cc2)Oc2ccc(NS(=O)(=O)c3ccc(Cl)cc3)cc2C1=O | -14 | -3 |
| C[C@@H]1CCCCO[C@H](CN(C)C(=O)NC2CCCCC2)[C@H](C)CN([C@@H](C)CO)C(=O)c2cc(NS(=O)(=O)c3ccc(F)cc3)ccc2O1 | ? | / |
| O=C(C[C@H]1C=C[C@@H](NC(=O)C2CC2)[C@H](CO)O1)NCc1ccccc1Cl | 6 | -2 |
| COCC#Cc1ccc2c(c1)O[C@H](CN(C)C(=O)NC(C)C)[C@H](C)CN([C@@H](C)CO)S2(=O)=O | 10 | 8 |
| C[C@H]1CN([C@@H](C)CO)C(=O)c2cc(NC(=O)C3CCCCC3)ccc2O[C@@H]1CN(C)Cc1ccc(C(=O)O)cc1 | 22 | 13 |

Exported with each value named: 2 of the compounds above.
structure: CCC(=O)Nc1ccc2c(c1)OC[C@@H](C)NC[C@H](C)[C@@H](OC)CN(C)C2=O
  Vaccinia stage: -7
  Vaccinia stage Venus: -5
structure: C[C@@H]1CN([C@@H](C)CO)C(=O)c2cc(NS(=O)(=O)c3ccccc3)ccc2O[C@@H](C)CCCCO[C@@H]1CN(C)S(=O)(=O)c1cn(C)cn1
  Vaccinia stage: 6
  Vaccinia stage Venus: 0

The list continues:
| compound | Vaccinia stage | Vaccinia stage Venus |
| --- | --- | --- |
| C[C@H](CO)N1C[C@H](C)[C@H](CN(C)S(=O)(=O)c2ccc(Cl)cc2)Oc2ccc(NS(=O)(=O)c3cccs3)cc2CC1=O | 17 | 14 |
| C[C@@H]1CN([C@@H](C)CO)S(=O)(=O)c2ccc(C#Cc3ccccn3)cc2O[C@@H]1CN(C)Cc1ccc(F)cc1 | ? | / |
| C[C@@H]1CN([C@H](C)CO)C(=O)c2cccc(NC(=O)c3ccc(-c4nccs4)cc3)c2O[C@H]1CN(C)S(=O)(=O)c1cccs1 | 13 | 12 |
| CCCN(C)C[C@H]1OCCCC[C@@H](C)Oc2ccc(NC(=O)Nc3ccc(OC)cc3)cc2C(=O)N([C@@H](C)CO)C[C@H]1C | ? | / |
| O=C(Nc1ccc(C(F)(F)F)cc1)N1[C@@H]2CNC[C@H]1C2c1ccc(/C=C/c2ccccc2)cc1 (stereo not given in full) | -32&2 | -10&-3 |
| C[C@H]1CN([C@@H](C)CO)S(=O)(=O)c2ccc(C3=CCCCC3)cc2O[C@H]1CN(C)C(=O)Cc1ccncc1 | -25 | -18 |
| CN(C)CC(=O)N[C@H]1CC[C@H](CCNC(=O)C2CCCCC2)O[C@H]1CO | 1 | -4 |
| O=C1C=CCCN1C(=O)/C=C/c1cccc(Br)c1 | -12 | -12 |
| COCC(=O)N1C[C@H](C)[C@@H](OC)CN(C)C(=O)c2cc(NC(=O)c3ccc(F)cc3)ccc2OC[C@@H]1C | -16 | -12 |
| O=C(C[C@@H]1C[C@H]2c3cc(NC(=O)c4ccc5c(c4)OCO5)ccc3O[C@H]2[C@H](CO)O1)NC1CCCC1 | -10 | -10 |
| C[C@H](CO)N1C[C@H](C)[C@@H](CN(C)CC2CCCCC2)Oc2ccc(NC(=O)CCCN(C)C)cc2C1=O | 10 | 5 |
| Cc1ccc(S(=O)(=O)Nc2cccc3c2O[C@H](CN(C)C)[C@@H](C)CN([C@@H](C)CO)C3=O)cc1 | 4 | 2 |
| CCC(=O)Nc1ccc2c(c1)OC[C@H](C)N(C(=O)c1cnccn1)C[C@@H](C)[C@H](OC)CN(C)C2=O | 24 | 23 |
| O=C(NC[C@@H]1[C@H](c2ccccc2)[C@H](CO)N1CC1CC1)c1cccnc1 | 9 | 10 |
| C[C@H]1CCCCO[C@@H](CN(C)C(=O)c2ccccc2)[C@@H](C)CN([C@@H](C)CO)C(=O)c2cc(NS(=O)(=O)c3ccc(Cl)cc3)ccc2O1 | ? | / |
| C[C@@H]1CN([C@@H](C)CO)C(=O)c2cc(NC(=O)Nc3ccc(F)cc3)ccc2O[C@@H]1CN(C)S(C)(=O)=O | 17 | 4 |
| Cc1ccccc1-c1ccc([C@H]2[C@H]3CN(S(=O)(=O)c4cn(C)cn4)CCCCN3[C@H]2CO)cc1 | ? | / |
| COc1ccc(NC(=O)Nc2cccc3c2O[C@@H](CN(C)Cc2ccc(Oc4ccccc4)cc2)[C@@H](C)CN([C@@H](C)CO)C3=O)cc1 | -33 | -20 |
| CCC(=O)Nc1ccc2c(c1)OC[C@@H](C)N(CC1CCOCC1)C[C@@H](C)[C@@H](OC)CN(C)C2=O | -12 | -9 |
| C[C@H]1CN([C@@H](C)CO)S(=O)(=O)c2ccc(C3=CCCC3)cc2O[C@@H]1CN(C)C(=O)CC1CC1 | 0 | 3 |
| CC(C)CC#Cc1cnc2c(c1)C(=O)N([C@@H](C)CO)C[C@H](C)[C@@H](CN(C)S(=O)(=O)c1ccccc1)O2 | -5 | -8 |
| COc1ccccc1NC(=O)N1CC(=O)N2[C@H](CO)[C@@H](c3ccc(-c4ccc(F)cc4)cc3)[C@H]2C1 | ? | / |
| CCC(=O)N1[C@H](CO)[C@H](c2ccc(C#CC3(O)CCCC3)cc2)[C@@H]1CNC(C)=O | 3 | 3 |
| O=C(C[C@@H]1CC[C@H](NC(=O)CC2CC2)[C@H](CO)O1)NCc1ccc(Cl)cc1 | 18 | 20 |
| C[C@H]1CN([C@@H](C)CO)S(=O)(=O)c2ccc(C#CC3CC3)cc2O[C@@H]1CN(C)C(=O)c1ccccc1 | -30 | -28 |
| O=C(C[C@H]1C[C@@H]2c3cc(NC(=O)c4cccnc4)ccc3O[C@@H]2[C@@H](CO)O1)NCc1cccnc1 | 10 | 10 |
| COc1ccc(-c2ccc3c(c2)[C@@H]2[C@@H](CCN2C(=O)C2CC2)[C@H](CO)N3C)cc1 | ? | / |
| O=C(c1ccncc1)N1CC(=O)N2[C@@H](CO)[C@H](c3ccc(/C=C/c4ccccc4)cc3)[C@@H]2C1 | 7 | 2 |
| CO[C@H]1CN(C)C(=O)c2cc(NC(=O)c3ccccc3)ccc2OC[C@H](C)N(C(C)=O)C[C@@H]1C | 9 | 7 |
| CO[C@H]1CC[C@@H]2CCOc3ccc(C#N)cc3C(=O)N(C)C[C@@H](OC)[C@@H](C)C(=O)N(C)C[C@H]1O2 | 1 | 6 |
| C[C@H]1CN([C@@H](C)CO)C(=O)c2cc(C#CCN(C)C)cnc2O[C@H]1CN(C)C(=O)c1cccnc1 | 21 | 3 |
| Cc1noc(C)c1S(=O)(=O)N(C)C[C@@H]1OCCCC[C@H](C)Oc2ccc(NS(=O)(=O)c3ccccc3)cc2C(=O)N([C@H](C)CO)C[C@@H]1C | ? | / |
| C[C@@H]1CCCCO[C@@H](CN(C)Cc2ccc(Cl)c(Cl)c2)[C@@H](C)CN([C@@H](C)CO)C(=O)c2cc(NC(=O)NC3CCCCC3)ccc2O1 | -25 | -26 |

Grouped by structure, the entries above with a Cl atom
| compound | Vaccinia stage | Vaccinia stage Venus |
| --- | --- | --- |
| COc1ccc(NC(=O)N[C@@H]2CC[C@H](CCNC(=O)c3cc(Cl)cc(Cl)c3)O[C@@H]2CO)cc1 | -12 | -6 |
| O=C(C[C@H]1CC[C@@H](NS(=O)(=O)c2ccccc2)[C@H](CO)O1)NCc1ccc(Cl)c(Cl)c1 | -28 | -16 |
| C[C@H](CO)N1C[C@H](C)[C@@H](CN(C)S(=O)(=O)c2ccc(Cl)cc2)Oc2ccc(NS(=O)(=O)c3ccc(Cl)cc3)cc2C1=O | -14 | -3 |
| O=C(C[C@H]1C=C[C@@H](NC(=O)C2CC2)[C@H](CO)O1)NCc1ccccc1Cl | 6 | -2 |
| C[C@H](CO)N1C[C@H](C)[C@H](CN(C)S(=O)(=O)c2ccc(Cl)cc2)Oc2ccc(NS(=O)(=O)c3cccs3)cc2CC1=O | 17 | 14 |
| C[C@H]1CCCCO[C@@H](CN(C)C(=O)c2ccccc2)[C@@H](C)CN([C@@H](C)CO)C(=O)c2cc(NS(=O)(=O)c3ccc(Cl)cc3)ccc2O1 | ? | / |
| O=C(C[C@@H]1CC[C@H](NC(=O)CC2CC2)[C@H](CO)O1)NCc1ccc(Cl)cc1 | 18 | 20 |
| C[C@@H]1CCCCO[C@@H](CN(C)Cc2ccc(Cl)c(Cl)c2)[C@@H](C)CN([C@@H](C)CO)C(=O)c2cc(NC(=O)NC3CCCCC3)ccc2O1 | -25 | -26 |
